# AF4-AF9 inh – inhibitors of AF4 peptide binding to AF9, primary screen, biochemical, AlphaScreen, biotin-AF4 peptide, FLAG-AF9, single point; Protein AF-9 (Homo sapiens), P42568; inhibition, % at 10 µM; 0.47% of 350,000 active; AID 651704, 2012;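 active = every replicate reaching a set inhibition limit, whatever the replicate mean, cut at about 25% in these data; inconclusive = mean inhibition reaches that limit but some replicates miss it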;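 also: 0% = plate neutral control median and 100% = total signal loss; the record names both 10 and 1 µM as test concentration; the first replicate is given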
# Target sequence (P42568 whole entry, looked up): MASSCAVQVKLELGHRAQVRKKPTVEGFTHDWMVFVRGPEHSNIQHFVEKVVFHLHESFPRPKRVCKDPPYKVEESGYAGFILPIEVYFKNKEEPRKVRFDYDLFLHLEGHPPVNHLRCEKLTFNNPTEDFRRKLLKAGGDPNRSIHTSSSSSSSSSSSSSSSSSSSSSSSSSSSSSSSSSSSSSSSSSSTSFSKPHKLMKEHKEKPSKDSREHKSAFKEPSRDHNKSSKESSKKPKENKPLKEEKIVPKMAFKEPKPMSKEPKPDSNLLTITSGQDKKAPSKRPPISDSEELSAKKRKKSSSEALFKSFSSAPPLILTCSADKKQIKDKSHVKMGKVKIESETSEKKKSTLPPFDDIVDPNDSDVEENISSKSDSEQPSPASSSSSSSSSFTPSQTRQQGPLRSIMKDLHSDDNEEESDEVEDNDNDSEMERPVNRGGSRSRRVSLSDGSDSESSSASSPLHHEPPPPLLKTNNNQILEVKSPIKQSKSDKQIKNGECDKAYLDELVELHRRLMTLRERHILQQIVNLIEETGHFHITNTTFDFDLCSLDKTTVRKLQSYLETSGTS
# LANA-H2B inh – blockers of LANA interaction with H2A/H2B – biochemical, FP readout, HTS, primary screen. Protein LANA1 (Human herpesvirus 8 type P (isolate GK18)), Q9QR71. cell-free LANA-H2A/H2B peptide, fluorescence polarization. inhibition, % (no concentration beside the values). 0.6% of 320,000 active; in the data active = inhibition mostly above about 10%, no sharp cut-off; inactive = mostly below about 6.7%;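 also: stock transfer was 7.5 nL into about 10 µL; 0% = median of vehicle wells and 100% = median of positive control wells; one replicate is shown; the record names a cut of 25% in any replicate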
# RanGTP-Imp inh – inhibitors of RanGTP-importin-beta interaction, primary screen, biochemical, FRET, CFP-Ran, YFP-importin-beta, homogeneous | Ran GTPase (GTP-bound) - importin-beta complex | cell-free CFP-Ran/YFP-importin-beta FRET ratio | inhibition, % (test concentration not listed) | 1.1% of 300,000 active;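 active = most replicates above 15%; inconclusive = exactly half above 15%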;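 also: 0% = DMSO wells and 100% = Ran loaded with GDP instead of GTP; wells of about 40 µL received 100 nL stock; the first replicate is given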
# Bfl-1 A1 inh – caspase 3/7 activation in MEF A1-2A-BIM cells, primary screen, A1 inhibitor project, cell-based, luminescence, HTS; Caspase-Glo 3/7 luminescence, 3 h; percent of clofoctol response, vehicle zero; 0.066% of 330,000 active; caspase activation, % (concentration not given with the values);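 active = over half of replicate activation scores above 10%, or exactly half above 10 with the replicate mean above 10; inconclusive = replicate mean below 10 yet half the replicates above 10; inactive = over half of replicates below 10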;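 also: wells of about 30 µL received 50 nL stock; many hits fall short of the cut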
# Vif A3G – inhibitors of Vif binding to APOBEC3G peptide, primary screen, biochemical, TR-FRET, GST-Vif 1-94, biotin-A3G peptide, dose response retest (AID 1117319); one-dose inhibition, %; IC50 in µM for titrated hits; Virion infectivity factor (Human immunodeficiency virus type 1 group M subtype B (isolate …; TR-FRET GST-Vif / biotin-A3G peptide binding; higher % means a stronger effect; test concentration not given here; strong numbers were not always called active; 0.57% of 260,000 active;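 active = above the screen mean plus three standard deviations and confirmed in dose response; inconclusive = results disagree or hit not tested in dose response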;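 also: Vif residues 1-94 fused to GST binding biotinylated APOBEC3G peptide 110-148; 0% = full assay without inhibitor and 100% = GST in place of GST-Vif; retest series ran down from 100 µM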
# Calb FLC – C. albicans growth inhibition with fluconazole, primary screen, CaCi-2 strain, Alamar Blue fluorescence. 0.57% of 300,000 active. C. albicans CaCi-2 (fluconazole-resistant clinical isolate) + fluconazole, 48 h. growth inhibition, % (concentration not given with the values);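 active = most replicates above 75%; inconclusive = exactly half above 75%; inactive = most below 75%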;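 also: all wells also contain fluconazole at 8 µg/ml as a sub-toxic cotreatment; 0% = median of DMSO wells and 100% = median of geldanamycin control wells; wells of about 8 µL received 7.5 nL stock; the first replicate is given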
# Beta cell apopt – inhibitors of cytokine-induced beta cell apoptosis, primary screen, luminescence; INS-1E cytokine-induced death, ATP luminescence, 48 h; percent of positive-control rescue, neutral wells zero; protection from apoptosis, % (no concentration beside the values); 0.8% of 300,000 active; AID 435005, 2010;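 active = all replicates at 75% or more, or half of them and the mean; inconclusive = half reach 75% but not the mean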;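 also: 0% = cytokine-treated negative control wells and 100% = positive control rescue; higher means more ATP so stronger rescue from cytokine killing; wells of about 40 µL received 100 nL stock; the first replicate is given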
# T cruzi inh – inhibitors of intracellular T. cruzi growth, primary screen, luminescence, NIH3T3 host cells | inhibition, % (concentration not given with the values) | T. cruzi beta-gal in NIH3T3, 90 h | AID 1885, 2009 | 1.4% of 300,000 active;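 active = mean inhibition across valid replicates above about 55%, limit read from the data; inconclusive = mean below that limit but half or more replicates reach it; inactive = mean below it, under half of replicates reach it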;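 also: signal also drops with host cell toxicity which is not excluded here; 0% = plate median of DMSO wells and 100% = zero luminescence signal; higher percent means less beta-gal luminescence so fewer parasites; stock transfer was 50 nL into about 50 µL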
# Active calls of the source: *; u = inconclusive; x = not tested or not shown.
Molecule,AF4-AF9 inh,LANA-H2B inh,RanGTP-Imp inh,Bfl-1 A1 inh,Vif A3G,Calb FLC,Beta cell apopt,T cruzi inh
CC(C)CC(NC(=O)C(NC(=O)OC(C)(C)C)C(C)C)C(=O)N1CCCC1C(N)=O (stereo not drawn),x,3.2,2.8,0.6,1%,-1,-3,-7
CC1(C)CC(=O)C2=C(C1)NC(SCC(N)=O)=C(C#N)C21CCCCC1,x,2.8,4.2,-1.6,2%,-3,-1,x
CCCCC(c1nnnn1CC1CCCO1)N1CCN(Cc2ccccc2)CC1 (stereo not drawn),x,-0.7,-0.6,-0.7,7%,-7,-5,3
COC(=O)Cc1ccc(NC(=S)NCC(C)C)cc1,-1.0,-3.9,x,-0.5,x,x,3,-6
CCOc1ccc2nc(NCCCNS(=O)(=O)c3ccc(C)cc3)c(C#N)cc2c1,6.7,4.9,129*,-0.5,10%,-19,-1,25
CCN(CC1CCCN(CCc2cccc(F)c2)C1)C(=O)c1ccc(CSC)o1 (stereo not drawn),9.5,3.8,-2.6,-0.4,x,0,-7,37
COc1ccc(-c2csc3nc(C)n(-n4cccc4)c(=O)c23)cc1OC,-10,-0.8,0.9,-0.1,-4%,23,3,7
Cn1cc(C(=O)N2CCN(c3ccccc3)CC2)c(=O)c2cc(S(=O)(=O)N3CCOCC3)ccc21,-1.5,-1.6,9.4,2.0,2%,-3,-3,-14
O=C(/C=C/c1ccco1)Nc1cccc2cccnc12,4.7,11,1.5,-0.5,u,8,-8,-28
O=C(Cn1nc(-c2ccco2)ccc1=O)Nc1ccc(Br)cc1,-1.1,0.7,4.6,-0.6,x,3,-4,-13
CN(C)C(=O)c1cc(C(=O)c2ccccc2)c[nH]1,0.1,-1.8,2.7,-0.5,6%,5,-3,-15
CCOc1ccc(/C=N/NC(=O)C2CC2)c(OCC)c1,0.0,1.1,x,-2.3,x,-11,1,x
Cc1onc(-c2ccccc2Cl)c1C(=O)Nc1ccc(-c2cn3cccnc3n2)cc1,x,2.7,0.0,-0.2,21%,-8,-4,-7
COc1ccc(C2CC(c3ccccc3)=NN2C(=O)CN2CCN(Cc3ccccc3)CC2)cc1 (stereo not drawn),18,-0.2,-2.2,0.1,x,4,0,27
NCCc1nnc(SCc2c(F)cccc2Cl)o1,3.6,3.7,6.1,-1.4,0%,-9,-2,5
Cc1cnc(NC(=O)CSC(=S)N2CCOCC2)s1,-0.4,-1.0,-0.9,-0.2,10%,17,0,-5
CCOC(=O)NC(=O)C(=CNc1ccc(C)cc1)C(=O)NC(=O)OCC,0.1,5.2,u,1.4,x,24,6,-22
Oc1ccccc1-c1nc(N2CCN(Cc3ccccc3)CC2)c2ccccc2n1,x,1.7,4.2,-0.3,-5%,5,1,30
CCOCCCN1C(=O)CN(C2CCCCCC2)C(=O)C1c1ccc(OC)cc1 (stereo not drawn),x,-3.0,-1.1,0.1,-4%,-10,3,6
CCN(CC(=O)Nc1ccc2c(c1)OCO2)CC(=O)Nc1ccccc1C(F)(F)F,-0.9,3.4,x,-0.1,-4%,x,7,x
CCC(C)[C@H](NC(=O)N1CCn2c1nc1ccccc12)C(=O)NCCc1ccc(OC)c(OC)c1 (stereo partly drawn),0.1,-0.8,1.4,-0.6,x,-5,5,-3
Cc1ccc(CN2CCSc3ccc(C(=O)NC4CCCC4)cc32)cc1,x,-0.5,12,-0.2,-12%,-2,5,12
CCOC(=O)c1ccc(NC(=S)N(CCCN2CCCC(C)C2)Cc2cccs2)cc1 (stereo not drawn),10,-0.5,-3.5,-0.2,1%,-17,-5,29
Cc1ccc(OCC(=O)N/N=C/c2cn[nH]c2-c2ccc(Cl)c(Cl)c2)cc1,x,-3.5,2.6,0.0,-1%,1,-5,2
CCCCNC(=O)Nc1nnc(-c2ccccc2)o1,x,2.4,-2.4,0.0,0%,-6,1,-8
CC(NS(=O)(=O)c1ccccc1)C(=O)Nc1nccs1 (stereo not drawn),x,-2.0,5.7,0.1,-9%,u,-5,-6
CCOC(=O)N1CCC(NC(=O)CCc2nc(-c3ccc(C)cc3)no2)CC1,x,-0.6,u,0.5,13%,5,2,-3
CCOc1ccc(NC(=O)C2CCCN(S(=O)(=O)c3cnc[nH]3)C2)cc1 (stereo not drawn),x,1.9,1.3,0.2,x,-2,-9,-16
CN(CC(=O)Nc1ccccc1Sc1ccccc1)Cc1nc2ccccc2c(=O)[nH]1,2.6,-2.2,1.9,0.2,-2%,3,3,-1
COc1ccccc1C(O)Cc1nc2ccccc2n1C (stereo not drawn),x,-5.7,3.2,-0.3,-1%,6,2,6
O=C(CS(=O)(=O)c1cn(Cc2ccc(F)cc2)c2ccccc12)N1CCOCC1,-1.3,0.5,4.4,0.0,29%,0,-1,7
CN(C)S(=O)(=O)c1ccc(C(=O)NCCOc2ccccc2)cc1,x,-1.2,1.4,0.4,-1%,-3,0,1
CCCCNC(=O)CCC(=O)Nc1ccc2nc(N3CCC(C)CC3)cc(C)c2c1,3.3,-1.7,-3.2,0.8,-5%,0,-3,15
NC(=O)c1ccc(-n2nnnc2SCC(=O)Nc2ccccc2-c2ccccc2)cc1,x,0.3,-4.4,-0.2,66%,15,1,14
Cc1cc(-c2ccccc2)cc(-c2ccccc2)[n+]1C,-3.4,1.4,x,1.2,-2%,-31,10,x
Cn1c(SCC(=O)NC2CCCCC2)nnc1-c1cc2ccccc2o1,x,-2.7,-0.3,-1.2,0%,-5,-3,-3
CC(C)(C)c1ccc(OCCC(=O)Nc2cccc(S(=O)(=O)N3CCCCC3)c2)cc1,-0.4,-9.5,4.6,0.4,x,-9,0,49
Cc1ccc(S(=O)(=O)N2CCOCC2)cc1NC(=O)CN1C(=O)NC(C)(c2ccc(Cl)cc2Cl)C1=O (stereo not drawn),2.3,-0.3,x,0.9,x,x,0,x
CC(C)N(CCNC(=O)C1CCC(=O)N1Cc1ccc(F)cc1)Cc1ccccc1 (stereo not drawn),x,-4.4,5.2,1.6,-5%,-9,-2,6
COc1ccc(NC(=O)C2=Cc3cccc(OC)c3OC2)cc1,2.9,3.9,-0.5,-3.7,27%,5,-2,x
O=C(Cc1nn[nH]n1)Nc1cc(Cl)cc(Cl)c1,-3.1,-3.4,4.1,-0.1,0%,-5,-5,-15
COc1ccc(CN2CC(C(=O)NC3CCCCC3)CC2=O)cc1 (stereo not drawn),-2.9,-4.3,4.3,0.3,-7%,-8,0,-8
OC(COc1ccccc1Cl)CN1CCN(CC(O)COc2ccccc2Cl)CC1 (stereo not drawn),x,-0.8,-0.6,1.1,1%,38,5,-16
O=C(CSc1nc2ccccc2s1)Nc1ccc2c(c1)oc1ccccc12,x,-2.3,0.8,-0.8,4%,-3,4,-3
O=C(N/C(=C\c1ccco1)C(=O)N1CCCC1)c1ccccc1,1.2,-1.7,-2.7,0.7,x,18,5,-9
CC(=O)NCC(=O)OCc1ccc([N+](=O)[O-])cc1,x,0.5,2.1,-0.9,6%,-24,-1,-20
CCCN(Cc1ccccc1)C(=S)NC(=O)c1ccccc1[N+](=O)[O-],-8.3,-1.9,-1.7,0.7,9%,10,-1,0
O=C(c1cc(-c2ccc(Br)cc2)on1)N1CCCCCC1,-3.4,-0.3,u,-2.4,x,-14,-6,2
O=C(Nc1ccccc1N1CCOCC1)c1ccc(N2CCOCC2)c([N+](=O)[O-])c1,-1.5,-1.7,2.1,0.2,-5%,5,0,-2
CCCCOc1cccc(NC(=O)CSc2nncn2C)c1,x,1.0,0.7,0.2,x,1,-2,-11

# Further records:
Molecule,AF4-AF9 inh,LANA-H2B inh,RanGTP-Imp inh,Bfl-1 A1 inh,Vif A3G,Calb FLC,Beta cell apopt,T cruzi inh
CC(=O)Nc1ccc(N2CCOCC2)c(Cl)c1,-1.2,1.9,4.7,-0.1,u,1,-2,-8
O=C(Nc1cc(C(=O)N2CCN(c3ccccc3O)CC2)ccc1Cl)c1cccs1,-22,8.3,8.5,0.2,5%,0,6,-18
COc1ccc(CCCc2nnc(SCC(=O)NN)o2)cc1,0.0,4.1,-0.2,0.5,-2%,-15,-6,-23
COc1ccc(C(=O)Nc2c(N)nc(SCC(=O)N3CCC(C)CC3)[nH]c2=O)cc1,-9.1,-1.8,-16,0.2,x,0,-4,-6
NC(=O)c1ccc(NC(=O)Cc2cccs2)cc1,2.3,0.6,u,-0.3,x,2,x,-19
CCC(=O)c1cn(CC(=O)Nc2ccccc2)c2ccccc12,0.0,3.3,2.4,-0.3,3%,5,4,6
C=CCNC(=O)c1ccccc1NC(=O)Cc1ccccc1[N+](=O)[O-],x,-3.7,0.1,0.6,32%,-21,1,-7
CCc1ccc(C2=NN(C(C)=O)C(c3ccco3)C2)cc1 (stereo not drawn),4.9,-2.5,0.4,-8.8,x,-12,4,10
CCOC(=O)c1ccc(N2CCOCC2)c(NS(=O)(=O)c2ccc(F)cc2)c1,-5.4,-3.1,-2.0,-0.4,x,17,2,18
CCS(=O)(=O)N1CCCC(C(=O)NCCc2ccc(OC)c(OC)c2)C1 (stereo not drawn),x,1.8,2.6,1.2,23%,10,-2,-13
COc1ccc(CNC(=O)CN(C)Cc2ccccc2F)cc1OC,-22,-3.4,0.3,-0.6,x,4,x,-14
COc1ccccc1NC(=O)c1ccccc1S(=O)(=O)c1ccc([N+](=O)[O-])cc1,-4.4,-3.9,-1.0,1.7,x,1,-6,2
C=CCOc1ccc(/C=C/C(=O)OCc2csc(CC(=O)Nc3ccccc3C)n2)cc1,-2.9,-6.9,x,-1.2,-17%,x,8,x
COc1ccccc1NC(=O)C(CC=C(Cl)Cl)C(C)=O (stereo not drawn),x,-4.8,2.4,-0.2,3%,-4,1,13
Cc1ccc2c(c1)[C@H]1[C@H](CO2)[C@H](c2ccccc2)[C@]2(C)C(=O)N(Cc3ccccc3)CC(=O)N12,4.1,-6.2,x,-0.5,x,x,-3,x
Cc1cc(/C=C(/C#N)C(=O)Nc2ccc(Cl)cc2)c(C)n1-c1cccnc1,x,x,1.7,-0.3,x,0,-1,7
C=CCn1c(Oc2cc(C)ccc2C)nc2c1c(=O)n(C)c(=O)n2C,-84,0.4,1.0,0.1,-1%,-8,5,-4
CCN(CC)S(=O)(=O)c1cccc(C(=O)NC(C(=O)NC2=NCCS2)C(C)C)c1 (stereo not drawn),x,-2.6,2.4,-0.2,-2%,-3,x,5
O=C(OCC(=O)N1CCc2ccccc21)c1ccc([N+](=O)[O-])cc1,-0.9,1.5,x,0.4,-6%,x,-2,x
CCc1ccc(N(C(C)=O)C2C=CS(=O)(=O)C2)cc1 (stereo not drawn),x,-0.3,1.7,0.8,-3%,2,-4,2
COc1ccc(CCN2CC(C(=O)NCCN3CCOC3=O)CCC2=O)cc1 (stereo not drawn),-7.6,1.3,-2.2,0.9,1%,0,-1,-7
